Assay outcomes as filed in PubChem.
fixLJ activator – activators of Burkholderia fixLJ two-component system; B. multivorans fixK-promoter GFP reporter, 18 h; hits give high values; z-score (test concentration not listed); 0.3% of 29,000 active;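 active means replicate mean overnight rise in green fluorescent reporter signal, 3 or more SD over negative controls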;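 further: score is relative to vehicle wells of the plate; 300 nL library stock went into each well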
Active calls of the source: *; & = joins results of further samples.

SMILES	fixLJ activator
O=C(Cc1cc2c(cc1Cl)OCCO2)NCc1nc(-c2cccnc2)no1	-0.51
COc1ccc(Nc2nc3cc(Cl)c(Cl)cc3n3cnnc23)cc1Cl	-1.33
COc1ccc(/C=C/c2nc(C#N)c(NCCc3ccc(OC)c(OC)c3)o2)cc1OC	1.13
CCn1c(=O)c2cc(C(=O)N(C)c3cc(Cl)c(OC)cc3OC)sc2c2ccccc21	-0.56
CCOc1ccc(N2CC(c3nc4ccccc4n3CCCOc3ccc(OC)cc3)CC2=O)cc1 (stereo unspecified)	-2.68
COc1ccccc1-c1cc(C(F)(F)F)nc(S(=O)(=O)CCCC(=O)Nc2ccc(F)c(Cl)c2)n1	0.12
Cc1ccc(Cl)cc1-n1nnc(-c2nsc(NC(=O)c3ccccc3Cl)n2)c1C	0.31
Cn1cccc1-c1cc(C(=O)N2CCCC2C(F)(F)F)[nH]n1 (stereo unspecified)	-1.53
COc1ccc(C2CC(=O)Nc3cc4c(cc32)OCO4)c(OC)c1 (stereo unspecified)	0.61
Cc1nc(C)n(CCCn2ccnc2-c2cc3n(n2)CCCNC3)n1	-0.4
CC(=O)N1CCc2c(sc3c2c(=O)n(Cc2ccccc2)c(=O)n3CC(=O)Nc2ccc(C)c(F)c2)C1	-0.01
O=S(=O)(Nc1ccc(C(F)(F)F)cc1)c1ccc2c(c1)OCCO2	-1.7
CCC(C)Oc1ccc(CN2CCC(NC(C)=O)CC2)cc1OC (stereo unspecified)	1.18
COc1ccc2c(c1)c(=O)c(S(=O)(=O)c1ccc(F)cc1)cn2Cc1ccccc1Cl	-0.66
Cc1cccc(OCc2cc(=O)n3c4c(sc3n2)CCCC4)c1C	-0.03
COCCOC(=O)C1=C(C)NC(C)=C(C(=O)OC(C)C)C1c1cccc([N+](=O)[O-])c1 (stereo unspecified)	-1.25&0.06
Cc1oc2ccc(O)c(CN(C)Cc3ccccc3)c2c1C(=O)Nc1ccccc1	-1.59
N#Cc1ccccc1NC(=O)CSc1nc(-c2ccccc2)cc(C(F)(F)F)c1C#N	-4.09
CC(=O)c1ccc(N2CCN(C(=O)c3cn(C)c(=O)c4c3c3ccccc3n4C)CC2)cc1	-0.11
CN(C)C(=O)c1cncc(NCCOc2cccc3cccnc23)n1	0.46
CCOC(=O)COc1ccccc1C1C(C(=O)OC)=C(C)NC2=C1C(=O)c1ccccc12 (stereo unspecified)	1.08
CCCCNC(=O)c1cc(-c2ccc(Cl)c(Cl)c2)on1	-0.46
O=C(NCc1ncc[nH]1)N1CCCCC1CCc1cccs1 (stereo unspecified)	-0.5
COc1ccc(CCNCc2c(C(=O)O)c(C)n(Cc3ccccc3C)c2C)c(OC)c1	-1
CCNC(=O)CC1C(=O)N(c2ccc(F)cc2)C(=O)N1CCOC (stereo unspecified)	-1.39

New compounds follow:
SMILES	fixLJ activator
Nc1c(C(=O)Nc2ccc(F)cc2)sc2nc(-c3cccs3)cc(C(F)(F)F)c12	-13.5
CC(C)(C)c1ncc2c(n1)CN(C(=O)Cc1cc(=O)[nH][nH]c1=O)C2	0.73
CCc1ccc(C(=O)c2cn(CC(=O)Nc3ccc4c(c3)OCCO4)c3ccc(CC)cc3c2=O)cc1	-2.87
Cn1ccc(C2CCCCN2C(=O)c2cn3ccsc3n2)n1 (stereo unspecified)	0.32
Cc1noc(C)c1S(=O)(=O)Nc1ccc(C(=O)Nc2ccc(Br)cc2)cc1	-1.09
Cc1ccc(Nc2c(-c3ccc(C)s3)nc3ncccn23)cc1	-0.51
CCc1cccc(C)c1NC(=O)Cn1cnc2c1c(=O)n(C)c(=O)n2C	-0.38
Cc1cc(NC(C)c2nc(-c3ccncc3)no2)n2nc(C)c(C)c2n1 (stereo unspecified)	-1.29
O=C(Cn1nnc2sc(-c3ccccc3)cc2c1=O)Nc1cccc(C(F)(F)F)c1	0.86
CCN1C(=O)C2(c3ccccc31)c1c(oc3ccccc3c1=O)C(=O)N2CCOC (stereo unspecified)	-0.87
Cc1nn(CC(=O)NC(C)c2ccccc2)c(=O)c2cc3occc3n12 (stereo unspecified)	-1.37
CCOc1ccc(NC(=O)N(Cc2c[nH]c3ccccc23)C2CCCCC2)cc1	-0.01
COc1ccc(CN(C)c2ccc(-c3nccn3C)nn2)c2cccnc12	-0.59
O=C1c2ccccc2C(=O)C1c1ccccc1	-1.3
CN1Cc2ccc(CN(C)C(=O)C3CCC(C(=O)O)C3)cc2C1 (stereo unspecified)	-1.43
CC(C)OCCCNC(=O)CCCn1c(=O)[nH]c2ccsc2c1=O	-1.56
Cc1ccc(S(=O)(=O)N2CCC[C@]3(CCCC3O)C2)cc1Cl (stereo partly specified)	-0.33
COc1ccc(-c2nc3c4cnn(-c5ccccc5F)c4ncn3n2)cc1	-1.02
CCOc1ccc(CNC(=O)C2CCCN(S(=O)(=O)N(C)c3ccc(F)cc3)C2)cc1OC (stereo unspecified)	1.14
COc1ccccc1NC(=O)c1sc(-c2ccc(Cl)cc2)cc1N	4.15*
Oc1cccc(C(Nc2ccccn2)c2ccc3cccnc3c2O)c1Cl (stereo unspecified)	-2.96
Cc1ccc(-c2nnc(Nc3ccc(S(N)(=O)=O)cc3)c3ccccc23)cc1S(=O)(=O)N1CCCCC1	-0.69
Cc1ccc(CN2C(=O)C(O)(c3c(C)[nH]c4ccccc34)c3ccccc32)cc1 (stereo unspecified)	-1.15
COc1ccc(-n2cnnc2)cc1NC(=O)CCc1scnc1C	-1.16
COc1ccc(C2(CNC(=O)C(=O)Nc3cccc(C(F)(F)F)c3)CCCC2)cc1OC	1.49

Next section:
SMILES	fixLJ activator
CCc1ccc(N=C2NC(=O)CC(C(=O)Nc3ccc(OC)cc3)S2)cc1 (stereo unspecified)	-0.4
CCN1CCN(C(=O)Cn2ncc3c4ccccc4n(Cc4c(C)cc(C)cc4C)c3c2=O)CC1	-4.53
CCc1cc(S(=O)(=O)NC2COCC2Cc2ccncc2)ccc1OC (stereo unspecified)	-1.55
CCOc1ccc(CCNC(c2cccc(Cl)c2)c2nnc(-c3ccccc3)o2)cc1OCC (stereo unspecified)	-1.02
CCOC(=O)C(Cc1ccccc1)NC(=O)CCc1c(C)nc2nc(C)nn2c1C (stereo unspecified)	-0.33
CCn1cc(C(=O)O)c(=O)c2cc(F)c(N3CCN(C)CC3)cc21	-4.89&-3.68
COCCN1C(=O)c2[nH]nc(-c3c(C)cc(C)cc3O)c2C1c1cccc(O)c1 (stereo unspecified)	-0.21
Cc1ccc2c(CC(=O)Nc3cc(C(F)(F)F)ccc3Cl)coc2c1C	-1.89
COc1ccccc1CC(=O)NC1CCCN(c2cnccn2)C1 (stereo unspecified)	0.31
Cc1ccc(S(=O)(=O)N(CC(=O)NCCc2ccc(Cl)cc2)c2ccccc2C)cc1	0.29
CC(C)CC(=O)N1CCC2(CC1)CN(Cc1ccc(-c3ccn[nH]3)s1)CCO2	-1.35
Cc1ccc(CNc2nc3ccc(C)cc3n3nnnc23)cc1	-0.85
COc1ccc(N2CCN(Cc3nc(-c4ccc(C)cc4)no3)CC2)cc1	-2.5
Cc1ccc(NC(=O)Cn2nc(-c3ccc(Cl)cc3)c3ccccc3c2=O)cc1	-2.09
COc1ccc(-c2cc3nc(C)c(CCC(=O)Nc4ccc(F)cc4F)c(C)n3n2)c(OC)c1	-0.34
O=C(Nc1ccc2c(c1)OCO2)c1cc(-c2cccc(Cl)c2)on1	0.36
COCc1c(Br)c(C)nc2sc3c(=O)n(-c4cccc(Br)c4)nnc3c12	-2.09
O=C1CN(C(=O)c2ccccc2)C(c2ccc(F)cc2)c2cc(Br)ccc2N1 (stereo unspecified)	-1.87
Fc1ccccc1N1CCN(c2ncnc3onc(-c4cccc(Cl)c4)c23)CC1	-1.36
COc1ccc(-c2nc(CN3CCC(C(=O)NCc4ccc(C)cc4)CC3)c(C)o2)cc1OC	-0.38
CC(C)C(NS(=O)(=O)c1ccc2c(c1)oc(=O)n2C)C(=O)N1CCN(c2cccc(Cl)c2)CC1 (stereo unspecified)	-0.98
Nc1nc(N)c(S(=O)(=O)c2ccccc2)c(Nc2ccc(F)cc2)n1	-3.15
CCCCN(CCCNC(=O)c1cc(Nc2ccc(OC)cc2OC)nc2ccccc12)Cc1ccccc1	0.24
Cc1ccc(NC(=O)c2ccc(N(Cc3ccccc3)S(C)(=O)=O)cc2)cc1	-0.79
CCCCCn1c(CCNC(=O)c2cccc(C)c2)nc2ccccc21	-1.01

Some of the entries above, set out differently.
Structure,fixLJ activator
Cc1ccc(CNc2nc3ccc(C)cc3n3nnnc23)cc1,-0.85
COc1ccc(N2CCN(Cc3nc(-c4ccc(C)cc4)no3)CC2)cc1,-2.5
Cc1ccc(NC(=O)Cn2nc(-c3ccc(Cl)cc3)c3ccccc3c2=O)cc1,-2.09
COc1ccc(-c2cc3nc(C)c(CCC(=O)Nc4ccc(F)cc4F)c(C)n3n2)c(OC)c1,-0.34
O=C(Nc1ccc2c(c1)OCO2)c1cc(-c2cccc(Cl)c2)on1,0.36
COCc1c(Br)c(C)nc2sc3c(=O)n(-c4cccc(Br)c4)nnc3c12,-2.09
O=C1CN(C(=O)c2ccccc2)C(c2ccc(F)cc2)c2cc(Br)ccc2N1 (stereo unspecified),-1.87
Fc1ccccc1N1CCN(c2ncnc3onc(-c4cccc(Cl)c4)c23)CC1,-1.36
COc1ccc(-c2nc(CN3CCC(C(=O)NCc4ccc(C)cc4)CC3)c(C)o2)cc1OC,-0.38
CC(C)C(NS(=O)(=O)c1ccc2c(c1)oc(=O)n2C)C(=O)N1CCN(c2cccc(Cl)c2)CC1 (stereo unspecified),-0.98
Nc1nc(N)c(S(=O)(=O)c2ccccc2)c(Nc2ccc(F)cc2)n1,-3.15
CCCCN(CCCNC(=O)c1cc(Nc2ccc(OC)cc2OC)nc2ccccc12)Cc1ccccc1,0.24
Cc1ccc(NC(=O)c2ccc(N(Cc3ccccc3)S(C)(=O)=O)cc2)cc1,-0.79
CCCCCn1c(CCNC(=O)c2cccc(C)c2)nc2ccccc21,-1.01

(continued)
SMILES	fixLJ activator
Cc1ccc(C)c(Cn2c(=O)n(CCC(=O)NCc3ccc4c(c3)OCO4)c(=O)c3sccc32)c1	-2.17
COc1ccc(C(=O)c2cn(Cc3cccc(C)c3)c3cc4c(cc3c2=O)OCCO4)cc1OC	-0.13
CCOc1ccc(C(=O)N2CCc3cc(OC)c(OC)cc3C2COc2ccc3c(C)cc(=O)oc3c2)cc1OCC (stereo unspecified)	0.07
Cc1ccc(C(=O)Nc2ccc3c(c2)n(C)c(=O)c(=O)n3C)cc1	-1.2
CCC1CCCCN1CC(=O)N1CCC2(CC1)OCCc1cc(OC)c(OC)cc12 (stereo unspecified)	0.73
CCCN1C(C(=O)c2ccccc2)=C(OC(=O)c2ccc(F)cc2)c2ccccc2S1(=O)=O	-0.37
Cc1cccc(C)c1NC(=O)Cn1cc(C(=O)C2CC2)c2ccccc21	-2.79
O=C(NCc1cn2ccsc2n1)c1n[nH]c2c1COCC2	-0.6
Cc1ccc(Cl)cc1NC(=O)Nc1cn(CC(C)C)c(=O)c2ccccc12	-0.27
COCCNC(=O)c1ccc2c(c1)N(Cc1cc(C)ccc1C)C(=O)c1ccccc1S2=O (stereo unspecified)	0.02
CCc1ccccc1NC(=O)Cn1c(SCc2ccc(F)cc2)nc2ccncc21	-1.75
O=C(NCc1ccccc1Cl)C1CCCN(S(=O)(=O)c2cccc3nsnc23)C1 (stereo unspecified)	-2.41
Cc1ccc(NC(=O)C2CCCN2S(=O)(=O)c2cccc3nsnc23)c(C)c1 (stereo unspecified)	-1.31
Cc1ccc(Cl)c(Nc2ccccc2C(=O)O)c1Cl	-1.35
NC(Cc1ccccc1)c1nc(CC2CC2)nn1CC(=O)NCC1=CCCCC1 (stereo unspecified)	-1.14
COc1ccc(-c2oc3ncn4nc(-c5ccccc5OC)nc4c3c2-c2ccc(OC)cc2)cc1	-0.26
N#Cc1c(C(F)(F)F)cc(-c2cccs2)nc1SCC(=O)Nc1ccccc1F	0.12
Cc1ccc(NC(=O)/C(C#N)=C/c2ccc(C)o2)cc1	0.56
COc1ccc2occ(CC(=O)Nc3ccc(S(=O)(=O)Nc4nccc(C)n4)cc3)c2c1	-1.67
CCOC(=O)c1ccccc1NC(=O)Cn1c(=O)n(CCC(=O)N2CCc3ccccc3C2)c(=O)c2ccccc21	-1.85
CCCN1C(=O)C2CCC1CN(C(=O)c1ccc(O)cc1)C2 (stereo unspecified)	0.71
CCCC(=O)NCCc1nc2ccccc2n1Cc1c(F)cccc1Cl	-0.93
COc1cccc2c1C1(CCN(C(=O)CCCNC(C)=O)CC1)OCC2	-0.4
COC(=O)c1cc(NS(=O)(=O)c2ccc3c(c2)OCCO3)ccc1Cl	-1.24
COc1ccc(OCC(=O)N(Cc2ccc(C)o2)C2CCS(=O)(=O)C2)cc1 (stereo unspecified)	-1.77

(listing goes on)
SMILES	fixLJ activator
Cc1ccc(CN2COc3cc(C)c4c(oc(=O)c5ccccc54)c3C2)cc1	0.24
COc1cccc(NC(=O)CCc2nnc3n(Cc4ccccc4Cl)c(=O)c4ccccc4n23)c1	-0.5
Cc1ccn2c(Nc3ccc(F)cc3)c(-c3ccccn3)nc2c1	0.71
CCCNC(=O)c1ccc(C)c(NC(=O)Cn2nc(C)cc2C)c1	-1.75
CC(=O)c1ccc(NC(=O)CC2Nc3cccc4cccc(c34)NC2=O)cc1 (stereo unspecified)	-0.87
Cc1ccc(Cl)cc1Nc1sc(C(=O)c2ccc(F)cc2)c(N)c1S(C)(=O)=O	-0.22
CNc1ccnc(N2CCC(N3CCCC(C(=O)NCc4cccnc4)C3)CC2)n1 (stereo unspecified)	0.88
CN1CCN(S(=O)(=O)c2ccccc2)CC12CCNC(=O)CC2 (stereo unspecified)	-3.14
CCOC(=O)c1sc(N2C(=O)c3oc4ccc(F)cc4c(=O)c3C2c2cccc(OC)c2)nc1C (stereo unspecified)	-2.41
CCc1ccc(CNc2nc3nc(C)c(Cc4ccccc4)c(=O)n3[nH]2)cc1	-1.24
Cc1ccc(NC(=O)C2CCCN(S(=O)(=O)c3cccc4cccnc34)C2)cc1Cl (stereo unspecified)	-1.26

Only part of the results is shown; count on the stated rates, not on these rows.
